From PubChem BioAssay
Hedgehog inh: Sonic Hedgehog pathway inhibition | 2.1% of 22,000 active | Shh-LIGHT2 Gli-luciferase reporter, 30 h | inhibition, % (concentration not given with the values);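 active = replicate mean of 65% or more; inconclusive = mean lower but half the replicates past it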;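 also: pathway switched on by Shh-conditioned medium diluted 1 in 25 in low serum; 100 nL library stock added to about 40 µL; 0% = median of neutral wells and 100% = positive control level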
PD-1 reverse act: reversal of PD-1 mediated T-cell inhibition; AID 2316; primary human CD4 T cells, PD-L1 beads, CellTiter-Glo 96 h; 29,000 tested, under 10 active; activation, % (concentration not given with the values);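 active = replicate mean of 50% or more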;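 also: 0% = median vehicle wells and 100% = positive control; 100 nL library stock added to about 50 µL; numbers are from one replicate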
MITF inh: MITF inhibition | TRPM1 promoter luciferase, luminescence, 24 h | inhibition, % (concentration not given with the values) | 0.28% of 37,000 active;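 active = most replicates at 85% or more, or half of them and the mean; inconclusive = half reach 85% but not the mean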;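 also: human melanocyte line stably carrying TRPM1 promoter luciferase reporter; 0% = vehicle wells and 100% = a positive control; the first replicate is given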
YB-1 expr inh: YB-1 expression inhibition; AID 434959; 0.37% of 30,000 active; U2OS, qRT-PCR YB-1 vs CDIP delta delta Cp, 16 h; hits give high values; zero = DMSO, each unit about twofold; delta delta Cp (YB-1 minus CDIP) (no concentration beside the values);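 active = delta delta Cp rounded down to an integer at or above 3, about 3 SD of DMSO wells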;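 also: higher means less YB-1 transcript or more CDIP transcript relative to DMSO; stock transfer was 100 nL into about 100 µL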
* = called active by the depositor.

How did Cc1noc(C)c1NC(=O)Nc1ccc2c(c1)C(=O)N([C@H](C)CO)C[C@H](C)[C@@H](CN(C)C(=O)c1ccccc1)OCCCC[C@@H](C)O2 do in these assays?
Hedgehog inh: inconclusive; MITF inh: 13.8; YB-1 expr inh: -0.0165

Results for C[C@@H]1CN([C@H](C)CO)C(=O)Cc2cc(NS(C)(=O)=O)ccc2O[C@@H]1CN(C)Cc1ccncc1 ?
Hedgehog inh: -46.1; PD-1 reverse act: -1.1; MITF inh: -2.5; YB-1 expr inh: -0.00268

Results for C[C@@H]1CN([C@H](C)CO)C(=O)c2cc(NC(=O)C3CC3)ccc2O[C@H]1CN(C)CC1CCCCC1 ?
Hedgehog inh: 19.4; PD-1 reverse act: -0.6; MITF inh: -9.1; YB-1 expr inh: 0.0583

What do the screens show for `COC(=O)C1=C(C)NC(C)=C(C(=O)OC)C1c1cc(Br)ccc1OCC(N)=O`?
PD-1 reverse act: -0.6; MITF inh: 4.3

How did CC(=O)O[C@@]1(C)C[C@@H](OC(=O)/C=C/c2ccc(O)cc2)[C@@H]2C(C(=O)O)=COC(O[C@@H]3O[C@H](CO)[C@@H](O)[C@H](O)[C@H]3O)[C@@H]21 (some centres not stated) do in these assays?
Hedgehog inh: -10.8; PD-1 reverse act: -0.5; MITF inh: 10.4; YB-1 expr inh: 0.476

How did CCOc1ccc(NC(=O)CC2NC3CCCCC3NC2=O)cc1 (configuration not stated) do in these assays?
PD-1 reverse act: 0.9; MITF inh: 5.3

What do the screens show for `Cc1ccc(N(C(=O)COc2ccc(C(C)(C)C)cc2)C2C=CS(=O)(=O)C2)cc1` (configuration not stated)?
PD-1 reverse act: -3.9; MITF inh: -2.3

How did C=C(CO)[C@]1(O)C[C@@]2(C)C(=CC1=O)C=C[C@@H](O)[C@@H]2C do in these assays?
Hedgehog inh: -9.4; PD-1 reverse act: -1.3; MITF inh: -14.3; YB-1 expr inh: 0.428

What do the screens show for `Cc1ccc(S(=O)(=O)N(C)C[C@H]2Oc3c(NC(=O)C4CCCCC4)cccc3C(=O)N([C@@H](C)CO)C[C@@H]2C)cc1`?
Hedgehog inh: -5.3; MITF inh: -7.2; YB-1 expr inh: -0.842

How did C[C@@H]1CN([C@H](C)CO)C(=O)Cc2cc(NC(=O)Nc3cccc4ccccc34)ccc2O[C@H]1CN(C)CC1CCCCC1 do in these assays?
MITF inh: 2.8; YB-1 expr inh: -0.362

What do the screens show for `Cc1cc(C(=O)Nc2cccc3c2O[C@H](CN(C)S(C)(=O)=O)[C@H](C)CN([C@@H](C)CO)C3=O)n(C)n1`?
Hedgehog inh: -17.8; PD-1 reverse act: 4.1; MITF inh: -4.1; YB-1 expr inh: 0.175

What do the screens show for `COc1ccc(S(=O)(=O)Nc2cccc3c2O[C@@H](CN(C)S(=O)(=O)c2cn(C)cn2)[C@@H](C)CN([C@H](C)CO)C3=O)cc1`?
Hedgehog inh: -25.8; PD-1 reverse act: 1.9; MITF inh: 4.5; YB-1 expr inh: -0.571

Results for CCCCC(C(=O)O)N1C(=O)c2ccccc2C1=O (configuration not stated) ?
PD-1 reverse act: 1.4; MITF inh: 10.8; YB-1 expr inh: -0.643

What do the screens show for `COc1ccc(NC(=O)Nc2ccc3c(c2)C(=O)N([C@@H](C)CO)C[C@H](C)[C@H](CN(C)CC2CCCCC2)O3)cc1`?
Hedgehog inh: -5.9; PD-1 reverse act: 2.0; MITF inh: -7.7; YB-1 expr inh: 0.1

What do the screens show for `C[C@@H]1CN([C@H](C)CO)C(=O)c2cc(NS(=O)(=O)c3ccc(F)cc3)ccc2O[C@H]1CN(C)CC1CC1`?
Hedgehog inh: -1.9; PD-1 reverse act: 1.4; MITF inh: 3.5; YB-1 expr inh: -0.0544

Results for COc1ccc(S(=O)(=O)N(C)C[C@@H]2Oc3ccc(NC(=O)Nc4ccc5c(c4)OCO5)cc3CC(=O)N([C@H](C)CO)C[C@H]2C)cc1 ?
Hedgehog inh: -44.2; MITF inh: 0.2; YB-1 expr inh: -0.0129

What do the screens show for `O=C1CC2(CCCC2)CC(=O)N1CCCCNCC1COc2ccccc2O1` (configuration not stated)?
Hedgehog inh: 38.4; PD-1 reverse act: 3.3; MITF inh: 6.8; YB-1 expr inh: 0.209

What do the screens show for `CC(C)NC(=O)Nc1ccc2c(c1)C(=O)N([C@H](C)CO)C[C@H](C)[C@H](CN(C)S(C)(=O)=O)OCCCC[C@@H](C)O2`?
Hedgehog inh: -18.5; PD-1 reverse act: 1.9; MITF inh: 1.1; YB-1 expr inh: -0.0513

What do the screens show for `COc1ccc(NC(=O)N(C)C[C@@H]2Oc3c(NS(=O)(=O)c4cccs4)cccc3C(=O)N([C@H](C)CO)C[C@@H]2C)cc1`?
Hedgehog inh: -31.7; PD-1 reverse act: -4.4; MITF inh: 1.6; YB-1 expr inh: 0.52

What do the screens show for `Cc1noc(C)c1S(=O)(=O)Nc1ccc2c(c1)C(=O)N([C@H](C)CO)C[C@H](C)[C@@H](CN(C)S(=O)(=O)c1ccc(F)cc1)O2`?
Hedgehog inh: -7.8; PD-1 reverse act: -0.8; MITF inh: 0.4; YB-1 expr inh: -0.405

How did O=C(COc1ccc([N+](=O)[O-])cc1)Nc1ccc2oc(-c3ccc(F)cc3Cl)nc2c1 do in these assays?
PD-1 reverse act: 1.9; MITF inh: -4.2

Results for C[C@H]1CN([C@@H](C)CO)C(=O)c2cc(NC(=O)Nc3ccc(C(F)(F)F)cc3)ccc2O[C@@H]1CN(C)S(C)(=O)=O ?
Hedgehog inh: -15.2; PD-1 reverse act: -3.3; MITF inh: 0.9; YB-1 expr inh: 0.0779

What do the screens show for `C[C@@H]1CN([C@H](C)CO)C(=O)c2cc(NC(=O)Cc3ccccc3)ccc2O[C@H]1CN(C)C(=O)NC1CCCCC1`?
Hedgehog inh: -33.8; PD-1 reverse act: 0.8; MITF inh: 1.0; YB-1 expr inh: -0.206

How did CC1(C)CC(=O)C=C(SCc2c(Cl)cccc2Cl)S1 do in these assays?
Hedgehog inh: 52.0; PD-1 reverse act: -1.0; MITF inh: 8.9; YB-1 expr inh: 0.541

How did COc1ccc(S(=O)(=O)N(C(C)=O)c2ccc3oc4c(c3c2)CC(C)CC4)cc1[N+](=O)[O-] (configuration not stated) do in these assays?
PD-1 reverse act: 2.9; MITF inh: 21.3

What do the screens show for `CC(=O)Nc1ccccc1NS(=O)(=O)c1ccccc1[N+](=O)[O-]`?
PD-1 reverse act: -1.0; MITF inh: -40.7

Results for N#Cc1c(-c2ccccc2Cl)cc(C2CC2)nc1N ?
Hedgehog inh: 1.5; PD-1 reverse act: -3.9; MITF inh: 5.1; YB-1 expr inh: 0.315

Results for Cc1noc(C)c1NC(=O)N(C)C[C@@H]1Oc2ccc(NC(=O)Nc3cccc4ccccc34)cc2CC(=O)N([C@H](C)CO)C[C@H]1C ?
Hedgehog inh: 51.8; MITF inh: 0.2; YB-1 expr inh: -0.545

Results for CC(C)(O)CCCC(C)(O)c1ccc(C(=O)O)cc1O (configuration not stated) ?
Hedgehog inh: -15.2; PD-1 reverse act: 1.8; MITF inh: -15.1; YB-1 expr inh: -0.416

What do the screens show for `Cc1cc(C)c(NC(=S)NC(=O)c2ccccc2)c(C)c1`?
PD-1 reverse act: -2.3; MITF inh: 7.0; YB-1 expr inh: -0.101

What do the screens show for `CC(C)NC(=O)Nc1cccc2c1O[C@H](CN(C)S(=O)(=O)c1ccc(F)cc1)[C@@H](C)CN([C@H](C)CO)C2=O`?
Hedgehog inh: -14.0; PD-1 reverse act: 1.4; MITF inh: 7.2; YB-1 expr inh: -0.725

How did COc1ccc(NC(=O)Nc2ccc3c(c2)C(=O)N([C@@H](C)CO)C[C@H](C)[C@H](CN(C)S(C)(=O)=O)O3)cc1 do in these assays?
Hedgehog inh: -10.8; PD-1 reverse act: 1.5; MITF inh: -7.5; YB-1 expr inh: -0.197

How did CN(C)c1nc(NC(C)(C)C)nc(SCC(=O)Nc2ccccc2)n1 do in these assays?
PD-1 reverse act: -1.7; MITF inh: 14.9

What do the screens show for `C[C@@H]1CN([C@@H](C)CO)C(=O)c2cccc(NC(=O)C3CCOCC3)c2O[C@@H]1CN(C)C(=O)NC1CCCCC1`?
Hedgehog inh: -3.2; PD-1 reverse act: 3.1; MITF inh: -7.1; YB-1 expr inh: -0.0104

Results for Cc1cc(Cl)c(S(=O)(=O)Nc2ccc(F)cc2)cc1OCC(N)=O ?
PD-1 reverse act: 2.3; MITF inh: 10.8

What do the screens show for `C[C@@H]1CN([C@H](C)CO)C(=O)c2cccc(NS(=O)(=O)c3cccs3)c2O[C@H]1CN(C)C(=O)Nc1ccc(C(F)(F)F)cc1`?
Hedgehog inh: 8.1; PD-1 reverse act: 2.3; MITF inh: 1.2; YB-1 expr inh: 0.136

What do the screens show for `C=CCNC(=S)Nn1c(C)nnc1-n1nc(C)cc1C`?
Hedgehog inh: -5.5; PD-1 reverse act: 0.7; MITF inh: -28.5; YB-1 expr inh: -0.376

Results for O=C1C=C(SCC(=O)c2ccccc2)SC(c2ccc(Cl)cc2)C1 (configuration not stated) ?
Hedgehog inh: 82.7*; PD-1 reverse act: 0.6; MITF inh: 17.9; YB-1 expr inh: -0.0612

Results for C[C@@H]1CN([C@H](C)CO)C(=O)c2cccc(NC(=O)c3ccc(-c4nccs4)cc3)c2O[C@H]1CN(C)C(=O)Nc1ccc(F)cc1 ?
Hedgehog inh: -5.9; PD-1 reverse act: 1.0; MITF inh: 3.4; YB-1 expr inh: -0.784

What do the screens show for `C[C@H](CO)N1C[C@H](C)[C@@H](CN(C)S(=O)(=O)c2ccc(F)cc2)Oc2c(NS(=O)(=O)c3ccccc3)cccc2C1=O`?
Hedgehog inh: 0.6; PD-1 reverse act: -0.2; MITF inh: 4.3; YB-1 expr inh: -0.206

How did CNC[C@H]1OCCCC[C@@H](C)Oc2ccc(NC(=O)C3CCCCC3)cc2C(=O)N([C@H](C)CO)C[C@@H]1C do in these assays?
Hedgehog inh: -28.1; PD-1 reverse act: 0.7; MITF inh: -8.6; YB-1 expr inh: -0.0265

Results for Cc1ccccc1-c1nnc(SCC(=O)Nc2ccc(Br)c(C)c2C)n1C ?
PD-1 reverse act: 1.2; MITF inh: 25.2

What do the screens show for `Cc1ccc(NS(=O)(=O)c2cc(C(=O)NCC3CCCO3)ccc2Cl)cc1C` (configuration not stated)?
PD-1 reverse act: 1.6; MITF inh: 13.8

What do the screens show for `C[C@@H]1CCCCO[C@@H](CN(C)Cc2ccc(Cl)c(Cl)c2)[C@@H](C)CN([C@H](C)CO)C(=O)c2cc(NC(=O)NC3CCCCC3)ccc2O1`?
PD-1 reverse act: -0.7; MITF inh: 25.3; YB-1 expr inh: -0.539

Results for Cc1cc(I)ccc1NC(=O)CN(c1ccccc1F)S(C)(=O)=O ?
PD-1 reverse act: 2.7; MITF inh: -0.2

Results for C[C@@H]1CCCCO[C@@H](CN(C)C(=O)C2CCCCC2)[C@@H](C)CN([C@H](C)CO)C(=O)c2cc(NC(=O)CCC(F)(F)F)ccc2O1 ?
Hedgehog inh: -19.3; PD-1 reverse act: 2.1; MITF inh: 6.9; YB-1 expr inh: 0.328

What do the screens show for `C[C@H]1CN([C@@H](C)CO)C(=O)Cc2cc(NC(=O)C3CC3)ccc2O[C@@H]1CN(C)C(=O)NC1CCCCC1`?
Hedgehog inh: -13.6; PD-1 reverse act: 0.6; MITF inh: -10.3; YB-1 expr inh: 0.111

Results for C[C@@H]1CCCCO[C@@H](CN(C)C(=O)c2ccccc2)[C@@H](C)CN([C@H](C)CO)C(=O)c2cc(NC(=O)CCCCCC(=O)Nc3ccccc3N)ccc2O1 ?
PD-1 reverse act: 1.1; MITF inh: -13.8; YB-1 expr inh: -0.174

Results for C[C@@H]1CCCCO[C@@H](CN(C)Cc2ccccc2)[C@@H](C)CN([C@H](C)CO)C(=O)c2cc(N(C)C)ccc2O1 ?
Hedgehog inh: 6.2; PD-1 reverse act: -0.2; MITF inh: -8.5; YB-1 expr inh: -0.121

What do the screens show for `COc1cccc(-c2nc(SCC(=O)Nc3cccc(C(F)(F)F)c3)[nH]c(=O)c2C#N)c1`?
PD-1 reverse act: 0.1; MITF inh: -5.2

5 compounds out of the list, arranged by SMILES length, lowest first.
Results for Cc1cc(I)ccc1NC(=O)CN(c1ccccc1F)S(C)(=O)=O ?
PD-1 reverse act: 2.7; MITF inh: -0.2

What do the screens show for `COc1cccc(-c2nc(SCC(=O)Nc3cccc(C(F)(F)F)c3)[nH]c(=O)c2C#N)c1`?
PD-1 reverse act: 0.1; MITF inh: -5.2

How did CNC[C@H]1OCCCC[C@@H](C)Oc2ccc(NC(=O)C3CCCCC3)cc2C(=O)N([C@H](C)CO)C[C@@H]1C do in these assays?
Hedgehog inh: -28.1; PD-1 reverse act: 0.7; MITF inh: -8.6; YB-1 expr inh: -0.0265

Results for C[C@@H]1CCCCO[C@@H](CN(C)C(=O)C2CCCCC2)[C@@H](C)CN([C@H](C)CO)C(=O)c2cc(NC(=O)CCC(F)(F)F)ccc2O1 ?
Hedgehog inh: -19.3; PD-1 reverse act: 2.1; MITF inh: 6.9; YB-1 expr inh: 0.328

What do the screens show for `C[C@@H]1CCCCO[C@@H](CN(C)Cc2ccc(Cl)c(Cl)c2)[C@@H](C)CN([C@H](C)CO)C(=O)c2cc(NC(=O)NC3CCCCC3)ccc2O1`?
PD-1 reverse act: -0.7; MITF inh: 25.3; YB-1 expr inh: -0.539

The list is partial; count on the stated rates, not on these rows.
